Screening data (PubChem BioAssay)
Arbovirus anti = antivirals against arbovirus infection, primary screen, cell-based, full library, 10K replicate subset. arbovirus infection cell-based antiviral screen. inhibition, % at 10 µM. hit rate 0.37% among 200,000. AID 1251, 2008;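 active means inhibition from about 30%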;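 further: bluetongue infection of BSR cells; cell survival read as ATP light after 72 h; 0% = infected wells without compound and 100% = uninfected wells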
Mtb H37Rv = M. tuberculosis H37Rv growth inhibitors, H37Rv strain (AID 1626); M. tuberculosis H37Rv growth inhibition; higher % means a stronger effect; hit rate 0.95% among 220,000; inhibition, % at 10 µM, or IC50 in µM where a hit was titrated;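 active means confirmed in a dose series; inconclusive means inhibition above 80% but not taken into the dose series; inactive means below 80% or under 30% at every dose of the series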;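 further: bacteria incubated seven days before Alamar blue readout; 0% = bacteria only wells and 100% = bacteria with antibiotic wells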
RecA intein inh = Mtb RecA intein splicing inhibitors, primary screen, biochemical, fluorescence, HTS. cell-free RecA intein splicing. inhibition, %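 (about 9 µM by stock and volumes)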. hit rate 0.75% among 290,000. AID 2221, 2009; in the data active means inhibition above about 30%; inconclusive means no clear call, values can overlap the other calls;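 further: 0% = vehicle wells and 100% = reference inhibitor control wells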
Target sequence (P9WHJ3 whole entry, looked up): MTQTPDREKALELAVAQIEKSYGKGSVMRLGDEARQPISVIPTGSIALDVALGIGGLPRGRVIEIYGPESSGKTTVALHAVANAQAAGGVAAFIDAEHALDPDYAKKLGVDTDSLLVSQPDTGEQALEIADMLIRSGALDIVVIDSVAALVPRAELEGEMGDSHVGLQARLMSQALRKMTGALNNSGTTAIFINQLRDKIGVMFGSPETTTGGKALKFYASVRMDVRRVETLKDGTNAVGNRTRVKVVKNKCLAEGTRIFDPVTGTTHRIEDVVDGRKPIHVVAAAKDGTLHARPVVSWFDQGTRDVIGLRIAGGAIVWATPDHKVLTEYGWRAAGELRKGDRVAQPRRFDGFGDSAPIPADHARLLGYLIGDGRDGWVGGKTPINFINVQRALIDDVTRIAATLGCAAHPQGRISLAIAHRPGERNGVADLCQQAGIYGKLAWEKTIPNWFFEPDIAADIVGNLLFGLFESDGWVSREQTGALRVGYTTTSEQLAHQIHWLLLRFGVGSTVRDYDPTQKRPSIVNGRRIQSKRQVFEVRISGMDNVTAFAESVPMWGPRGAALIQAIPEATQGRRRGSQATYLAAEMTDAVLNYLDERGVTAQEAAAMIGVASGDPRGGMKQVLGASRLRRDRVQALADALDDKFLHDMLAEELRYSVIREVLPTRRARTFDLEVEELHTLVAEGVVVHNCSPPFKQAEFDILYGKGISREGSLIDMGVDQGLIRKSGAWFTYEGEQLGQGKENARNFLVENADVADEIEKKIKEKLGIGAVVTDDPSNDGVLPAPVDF
Mtb bLac sens = beta-lactam sensitization of Mtb H37Rv, H37Rv | inhibition, % at 25 µM | AID 434955, 2010 | hit rate 0.27% among 330,000 | M. tuberculosis H37Rv growth with meropenem, percent inhibition; hits of this screen are not shown here;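 active means about 74% or more and at least 40 points above the plate without the antibiotic, then above 30% in a dose series; inconclusive means first-round hits that could not be retested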;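 further: growth measured after seven days incubation then overnight dye step; 0% = bacteria only wells and 100% = bacteria with antibiotic; twin plates without the antibiotic show which effects depend on it; some results filed as inactive read as strong as hits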
YopH PTP inh = YopH tyrosine phosphatase inhibitors, primary screen, biochemical, fluorescence Ex485/Em525. hit rate 0.16% among 140,000. YopH tyrosine phosphatase [Yersinia enterocolitica]. AID 898, 2007. inhibition, %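 (about 10 µM by stock and volumes)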;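 active means inhibition of 50% or more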;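 further: controls were vehicle for no effect and minimum signal wells for full effect; inactives centre near -20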
Arbovirus anti repeat = recorded beside Arbovirus anti, whose call it bears; inhibition, %; measured here: 10K subset replicate screen; many hits read low in the repeat;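 first of two repeat runs on a subset; 0% = infected and 100% = uninfected wells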
An asterisk follows results filed as active; ? = inconclusive; · = not tested or not shown. Not all compounds are listed. The share of hits here may be higher or lower than overall.

SMILES | Arbovirus anti | Mtb H37Rv | RecA intein inh | Mtb bLac sens | YopH PTP inh | others
CCc1ccc(CNC(=O)C2CCN(c3nnc(C)c4c(C)n(-c5ccc(C)cc5)nc34)CC2)cc1 | · | · | 2.1 | 6 | ·
CCCCN(C)C1CCN(C(=S)Nc2cccc(SC)c2)CC1 | -5 | 2% | -13 | 1 | ·
CC1=C(C)C(=O)C(N2CCOCC2)=CC1=O | -36 | 1% | -2.4 | · | 28
N#Cc1nc(-c2ccc(Cl)cc2)oc1N1CCCCC1 | 2 | 0% | 1.4 | 3 | -44
CCOC(=O)CNC(=O)C1CCCN(c2ncccn2)C1 (configuration not stated) | 0 | -10% | 0.5 | -2 | -36
CCOC(=O)N1CCC(NC(=O)c2ccc3c(c2)N(Cc2ccc(C)cc2)CCS3)CC1 | -14 | 4% | 1.5 | 6 | -23
CC(Sc1ccc([N+](=O)[O-])cn1)C(=O)Nc1nccs1 (configuration not stated) | · | · | -1.2 | 2 | ·
O=C(Nc1ccccc1C(F)(F)F)c1ccc(F)c(S(=O)(=O)N2CCOCC2)c1 | -1 | 0% | 0.8 | -5 | -43
Cc1ccc(-c2ccc(=O)n(CC(=O)N3CCC4(CC3)OCCO4)n2)cc1 | 6 | 9% | 1.6 | -3 | ·
Cc1cc(C)c(S(=O)(=O)Nn2cnnc2)c(C)c1 | -3 | -5% | -5.0 | -3 | ·
Fc1ccccc1-n1[nH]nnc1=S | 6 | 1% | 0.6 | -2 | -3
COc1ccc2ccccc2c1CNC(=O)CC1C(=O)NCCN1CC(C)C (configuration not stated) | 5 | 2% | 2.4 | 1 | ·
COc1cccc(C(=O)Nc2cccc(-c3nnc(-c4ccccc4)o3)c2)c1 | · | · | 0.4 | 0 | ·
CCCCn1c(=O)nc2n(-c3ccccc3C)c3ccccc3cc-2c1=O | 14 | 7% | -90 | 7 | -3
O=C(CSc1ccccc1)NNC(=O)c1ccccc1O | · | · | 4.3 | 4 | ·
N=c1ccn2c(n1)OC1C(O)C(CO)OC12 (configuration not stated) | · | -4% | -0.1 | -2 | ·
COc1ccc(N2C(=O)C3CCCN3C2c2ccccc2)cc1Cl (configuration not stated) | 2 | -1% | 0.5 | -6 | -4
Cc1cc2cc3c(cc2nc1SCC(=O)N1CCOCC1)OCO3 | · | · | -3.6 | -3 | ·
CCc1cccc2c1NC1(CCCC1)CC2C (configuration not stated) | · | 4% | 1.2 | 0 | ·
O=C(COC(=O)c1cccc(S(=O)(=O)NCc2ccccc2)c1)NCC1CCCO1 (configuration not stated) | 6 | 1% | -0.9 | -3 | ·
COc1cccc(C(=O)NC(=S)N2c3ccccc3CC2C)c1OC (configuration not stated) | · | · | 4.4 | -6 | ·
Cc1ncoc1C(=O)NC1CC(C)(C)Cc2c1cnn2-c1ccc(F)cc1 (configuration not stated) | · | · | 4.0 | -11 | ·
Cc1ccc(-c2nc(N)sc2C)cc1 | -4 | -8% | -0.5 | 74 | ·
COc1cccc(N2CC(NC(=O)C(=O)c3c[nH]c4ccccc34)CC2=O)c1 (configuration not stated) | · | · | -0.8 | 6 | ·
C=CCN1C2CCCC1CC(NC(=S)Nc1ccc(Cl)cc1)C2 (configuration not stated) | -29 | -7% | 3.5 | -3 | ·
Cc1cnc(CNC(=O)c2ccc3oc(C(C)C)nc3c2)[nH]1 | · | · | -1.9 | -2 | ·
COc1ccc(OCCCSc2ncccn2)cc1 | 7 | 10% | 0.3 | -6 | -29
O=C(CCN1C(=O)C2C3C=CC(C3)C2C1=O)NCC1CCCO1 (configuration not stated) | 9 | -10% | -0.9 | -3 | -40
COc1ccc(CCNC(=O)/C=C/c2ccc(C)cc2)cc1OC | 6 | -15% | -5.0 | 18 | -29
C/C=C/c1ccc(OCCCCNCc2ccco2)c(OC)c1 | -32 | -4% | 0.1 | -1 | ·
Cc1[nH]c2c(C(=O)N3CCCC(CCC(=O)NCc4ccccc4F)C3)cccc2c1C (configuration not stated) | -13 | 11% | -2.6 | -3 | ·
Nc1nonc1/C(=N/O)N1CCCC1 | 4 | 3% | -3.2 | 2 | -47
COCCNC(=O)COc1ccc(C)cc1C | 2 | 2% | 0.9 | -2 | -26
Clc1ccccc1-c1ncc(-c2ccccc2)o1 | · | · | -0.1 | 9 | ·
COc1ccc(-c2coc3cc(OC(=O)N4CCOCC4)ccc3c2=O)cc1 | · | 5% | 4.2 | 4 | ·
COc1ccc(N2C(=O)CSC2c2ccc(F)cc2)cc1 (configuration not stated) | · | · | 0.6 | 8 | ·

Two consecutive records out of the list so far:
SMILES | Arbovirus anti | Mtb H37Rv | RecA intein inh | Mtb bLac sens | YopH PTP inh | others
COc1ccc(-c2coc3cc(OC(=O)N4CCOCC4)ccc3c2=O)cc1 | · | 5% | 4.2 | 4 | ·
COc1ccc(N2C(=O)CSC2c2ccc(F)cc2)cc1 (configuration not stated) | · | · | 0.6 | 8 | ·

Carrying on.
SMILES | Arbovirus anti | Mtb H37Rv | RecA intein inh | Mtb bLac sens | YopH PTP inh | others
COc1cccc(OC)c1C(=O)Nc1ccc(N2CCN(C(=O)c3cccs3)CC2)cc1 | · | · | 1.6 | -1 | ·
Cc1ccc2[nH]c(=O)c(CN(Cc3cccnc3)C(=O)c3ccncc3)cc2c1 | 2 | -9% | 0.0 | -9 | -34
CCN(CC(=O)NC1CCS(=O)(=O)C1)S(=O)(=O)c1cc([N+](=O)[O-])ccc1C (configuration not stated) | · | · | 0.5 | 3 | ·
CC(=O)N1CCc2cc(S(=O)(=O)CCC(=O)NCc3ccc(Cl)cc3)ccc21 | · | · | -0.2 | 4 | ·
CN1CCC(=O)N([C@H](CN=[N+]=[N-])Cc2ccccc2)CC1 | · | · | 3.2 | -9 | ·
CC(=O)Nc1ccccc1NC(=O)C/C(C)=N/NC(=O)C(=O)Nc1cccc(Cl)c1C | 7 | 13% | -3.4 | 17 | ·
CCCCC(=O)Nc1ccc(NC(=O)c2ccccc2OC)cn1 | -1 | 4% | -2.0 | 5 | -6
CCOC(=O)c1nnc2cc(-c3ccc(Br)cc3)nn2c1C | 8 | 1% | 3.6 | -4 | -1
CC(C)CNS(=O)(=O)c1ccc(OCC(=O)NCC2CCCO2)c(Cl)c1 (configuration not stated) | 6 | 9% | 0.0 | -2 | 1
COC(=O)/C(=C\Nc1ccc(Cl)cc1Cl)NC(=O)c1ccc(OC)cc1 | · | · | 1.5 | 20 | ·
O=C(c1c[nH]c(C(=O)N2CCN(c3ccccc3F)CC2)c1)c1cccc(Cl)c1Cl | -21 | 97% | 5.6 | · | ·
Cc1cccc(CCNc2nc3ccccc3n3nnnc23)c1 | 6 | -4% | 5.4 | -8 | -3
Cn1ccnc1SCC(=O)NC1CC1 | 4 | 0% | -5.4 | 1 | -9
NS(=O)(=O)c1ccc(CNC(=O)C23CC4CC(CC(C4)C2)C3)cc1 | 10 | 5% | -2.8 | 4 | -4
O=C(CC(=O)c1ccccc1)Nc1ccccn1 | · | · | -0.6 | 0 | ·
Cc1cc2ncn(C3CC(=O)N(Cc4ccc(N5CCCC5=O)cc4)C3=O)c2cc1C (configuration not stated) | 2 | -8% | -0.5 | 1 | -18 | Arbovirus anti repeat=8
O=C1CCCCC1C(=O)c1ccccc1 (configuration not stated) | · | -12% | -0.1 | 9 | ·
O=C(NCc1ccccc1)C1(C(F)(F)F)C/C(=C/CCO)CCCO1 (configuration not stated) | · | -2% | -1.0 | -3 | ·
COC(=O)c1sc(NC(=O)c2oc3ccccc3c2C)nc1C | -2 | 2% | -0.5 | -14 | 11
CCOC(CNC(=O)c1ccc(CNC(=O)c2ccc(OC)c(OC)c2)cc1)OCC | 2 | -5% | -1.8 | -5 | ·
COC(=O)c1ccc(N2CCOCC2)c(NC(=O)Nc2cccc(OC)c2)c1 | 0 | 4% | 0.5 | -8 | -19 | Arbovirus anti repeat=-3
COc1nc(C)nc(NC(=O)NS(=O)(=O)c2ccc(C)cc2)n1 | 3 | -10% | -0.3 | 0 | 20
CC(C(=O)NCc1ccc2c(c1)OCO2)N1c2cccc3cccc(c23)S1(=O)=O (configuration not stated) | 3 | -3% | -1.7 | 6 | -32
COc1cccc(-c2nc(CS(=O)(=O)CC(=O)NCCCOC(C)C)c(C)o2)c1 | 11 | -3% | 0.8 | 3 | -35

Among those listed so far, these have an NH in an aromatic ring:
SMILES | Arbovirus anti | Mtb H37Rv | RecA intein inh | Mtb bLac sens | YopH PTP inh | others
Fc1ccccc1-n1[nH]nnc1=S | 6 | 1% | 0.6 | -2 | -3
COc1cccc(N2CC(NC(=O)C(=O)c3c[nH]c4ccccc34)CC2=O)c1 (configuration not stated) | · | · | -0.8 | 6 | ·
Cc1cnc(CNC(=O)c2ccc3oc(C(C)C)nc3c2)[nH]1 | · | · | -1.9 | -2 | ·
Cc1[nH]c2c(C(=O)N3CCCC(CCC(=O)NCc4ccccc4F)C3)cccc2c1C (configuration not stated) | -13 | 11% | -2.6 | -3 | ·
Cc1ccc2[nH]c(=O)c(CN(Cc3cccnc3)C(=O)c3ccncc3)cc2c1 | 2 | -9% | 0.0 | -9 | -34
O=C(c1c[nH]c(C(=O)N2CCN(c3ccccc3F)CC2)c1)c1cccc(Cl)c1Cl | -21 | 97% | 5.6 | · | ·

(cont.)
SMILES | Arbovirus anti | Mtb H37Rv | RecA intein inh | Mtb bLac sens | YopH PTP inh | others
O=C(NC(=S)N1CCCCC1)c1cccs1 | 6 | ? | -1.2 | 64 | -28
Cc1cc(C)n(CCCNCC(O)c2ccccc2)n1 (configuration not stated) | 2 | 2% | -3.9 | ? | -12
CC(=O)N1CCC(=NNc2nc3ccccc3[nH]2)CC1 | -12 | 6% | -7.5 | -9 | ·
NC(=NC(=O)c1ccccc1)N1CCOCC1 | -2 | -7% | -1.0 | 4 | -54
COc1ccc(NC(=O)c2[nH]c(C)c(C(C)=O)c2C)cc1 | 0 | -3% | 2.2 | -12 | ·
COc1ccc(-c2cc(C(=O)NNC(=O)c3csc(N4CCOCC4)n3)c3ccccc3n2)cc1 | · | · | 1.5 | 95 | ·
Cc1nn(C(C)C(=O)O)c2ccccc12 (configuration not stated) | -2 | -15% | -2.0 | 3 | -50
Cn1c(=O)c2c(nc(NCCNC(=O)c3ccco3)n2Cc2ccccc2)n(C)c1=O | · | · | 2.1 | 1 | ·
O=C(COc1ccc(/C=N/NS(=O)(=O)c2ccccc2)cc1)NCCc1ccccc1 | 2 | -10% | -0.2 | 0 | -13
CCC(=O)NNc1nc2c(F)cccc2s1 | 1 | 2% | · | -1 | ·
O=c1/c(=C\c2ccc(O)cc2)sc2nc(-c3ccccc3)c(-c3ccccc3)n12 | · | 7% | -7.5 | -3 | ·
CCOP(=O)(OCC)C(NC(=O)Nc1cccc(Cl)c1)c1ccccc1 (configuration not stated) | -4 | 4% | · | 1 | -9
CCC(c1nnnn1CC1CCCO1)N(CCCO)Cc1cc2cccc(C)c2[nH]c1=O (configuration not stated) | 11 | -3% | -1.4 | -5 | -9
Cc1cc(NC(=O)CSc2nnc(-c3cccc(Cl)c3)o2)no1 | · | · | 2.8 | 99 | ·
CC(=O)Nc1cccc(-n2nnc(SCC(=O)N(C)c3ccccc3)n2)c1 | · | -6% | -1.5 | 6 | ·
Cc1cccc(N/N=C(\C#N)S(=O)(=O)C(C)(C)C)c1 | 24 | 2% | -1.6 | -5 | ·
CCCCc1nc2ccccc2c(NC(=O)CN2CCCC2)c1CCC | 9 | 3% | -0.2 | 7 | -26
Cc1c(O)ccc(C(=O)CN2CC(C)OC(C)C2)c1O (configuration not stated) | · | · | -1.0 | 1 | ·
CCN1C(=O)[C@@H]2[C@@H](c3ccc(-c4ccc(OC)cc4)c(OC)c3)N3CCC[C@@]3(C(=O)OC)[C@@H]2C1=O | · | · | 0.1 | -4 | ·
Cc1nnc(N/N=C\c2ccc(-c3ccccc3[N+](=O)[O-])o2)n1N | -6 | -10% | 50* | -3 | 19
CCOC(=O)CC1COc2ccccc2N1C(=O)c1ccc(C)cc1 (configuration not stated) | 3 | -3% | 2.2 | 8 | -7
NC(=O)c1ccc(SCC(=O)OCC(=O)NCC2CCCCC2)c([N+](=O)[O-])c1 | · | · | -1.8 | -2 | ·
Cc1cccc(C(=O)Nc2cccc3c2CCCC3)c1 | · | · | 3.0 | 0 | ·
CNC(=O)c1sccc1SCc1c(Cl)cccc1Cl | 5 | -4% | -8.1 | 1 | -12
O=C(Nc1ccccc1)OCCCc1ccccc1 | -11 | 6% | 6.6 | 3 | ·
CCc1ccc2c(c1)C1(SC(NC(C)=O)=NN1C(C)=O)C(=O)N2CC (configuration not stated) | 1 | -6% | 3.3 | -6 | ·
CC1CCc2c(C(=O)NCC3CCCO3)csc2C1 (configuration not stated) | -3 | 15% | 2.6 | 5 | -45
Clc1cccc(N/N=C/c2ccncc2)c1 | -36 | ? | 4.4 | 69 | -19
